Screens as filed in PubChem BioAssay.
ClpP mod = qHTS Assay for Activators of ClpP | purified B. subtilis ClpP, FRET peptide cleavage, 20 min | 340,000 compounds, 1.9% hits | ATP-dependent Clp protease proteolytic subunit (Bacillus subtilis (strain 168)), P80244 | Potency, µM (titrated, usually from 57.5 µM), inactives show top-dose activity change, negative = active; active = well fitted falling curve with a large enough effect; inconclusive = small, poorly fitted or top-dose-only effect; inactive = no such curve, though single readings can be large or run the other way; note: potency is the fitted concentration of half-maximal effect; the source files actives as falling curves though it sought activators and does not explain the sign; nearly all actives have a fitted effect of over 65% in size; many hits overshoot -100%
Target sequence (P80244 whole entry, looked up): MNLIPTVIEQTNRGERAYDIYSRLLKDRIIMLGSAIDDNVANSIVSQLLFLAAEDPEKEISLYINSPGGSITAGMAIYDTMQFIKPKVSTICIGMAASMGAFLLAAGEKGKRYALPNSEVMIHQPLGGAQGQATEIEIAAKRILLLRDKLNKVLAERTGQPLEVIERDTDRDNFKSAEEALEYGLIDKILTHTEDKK
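Buffer: 100 mM Tris/HCl pH8, 100 mM KCl, 0.05% low protease BSA, 2.5% glycerol, 0.01% Tween-20. ClpP 10 microg/mL final; 20 min RT; delta FRET normalized to ADEP and DMSO controls.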
Sfp PPTase inh = Sfp phosphopantetheinyl transferase inhibition; Q9F4F7; Biochemical Sfp PPTase activity, qHTS; Potency, µM, for inactives: max response, negative = inhibition, actives largely listed as inhibitors; 310,000 compounds, 3.5% hits; AID 1490; active = well fitted inhibition curve with a large enough effect; inconclusive = small, poorly fitted or top-dose-only effect, or another doubt; inactive = no such curve, though single readings can be large or run the other way;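 note: the enzyme is Sfp with the accession as filed and its product quenches rhodamine fluorescence; potency is the fitted concentration of half-maximal effect; 0% = enzyme reaction without inhibitor and -100% = no enzyme wells; top concentration of the series not given in the record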
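Compounds were incubated with enzyme (final 15 nM) for 15 min at room temperature before substrate addition started the reaction. Fluorescence at 525 nm excitation, 598 nm emission was recorded immediately and after 30 minutes.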
gsp agonist = gsp mutant agonism | gsp mutant cells, cAMP HTRF, 30 min; control for the full effect not named in the record | Potency, µM (doses to about 76.9 µM), without a hit: top-dose activation (cAMP increase), usual class: activators | 340,000 compounds, 0.13% hits; active = well fitted activation curve with a large enough effect; inconclusive = small, poorly fitted or top-dose-only effect, or another doubt; inactive = no such curve, though single readings can be large or run the other way; cell line not stated here;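 note: phosphodiesterase inhibitor Ro 20-1724 added with compounds to block cAMP breakdown; potency is the fitted concentration of half-maximal effect; nearly all actives have a fitted effect of over 60% in size; about a fifth of the inactives were tested at one dose only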
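Cells in DMEM/10% FBS with G418 were pretreated with compounds in DMSO plus […] (300 uM stock) for 30 min at 37C. cAMP was measured by HTRF (cAMP-d2 plus anti-cAMP antibody-K) after 30 min at room temperature.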
Menin-MLL FL inh = displaces fluorescein MLL peptide from human menin. Fluorescence polarization, fluorescein-MLL peptide displacement from menin. FP activity change, % at 61.4 µM. 290,000 tested, under 10 active. AID 1766; inconclusive = falling polarisation curve, or a change in total fluorescence; inactive = total fluorescence flat and polarisation flat or rising; no compound was filed as active; the % refers to the polarisation; negative = inhibition;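 note: % of control where 0% means no effect; inhibitors lower the polarisation; unlabelled MLL peptide was the positive control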
TRPV1 potentiator = potentiators of human vanilloid receptor 1 (TRPV1); Q8NER1; TRPV1-expressing cells, Fluo-8 calcium influx, capsaicin EC20 potentiation; host cell line not named in the record; control for the full effect not named in the record; potentiation, % at 8.33 µM; 320,000 compounds, 0.02% hits; AID 540277; active means potentiation above 80%; inconclusive means 30% to 80%; inactive means below 30%; note: 0% is about no effect
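Fluo-8 calcium influx in TRPV1-expressing cells, kinetic read (ex 480/em 520 nm). Compound added and read 3 min for agonist activity, followed by capsaicin at EC20 final and 2 min further read for enhancement.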
gsp antag = gsp mutant antagonism; gsp-mutant cells, cAMP HTRF, 30 min; control for the full effect not named in the record; Potency, µM (top dose mostly 76.9 µM), without a hit: at the top dose activity change, negative = inhibition, most hits filed as inhibitors; 340,000 compounds, 0.4% hits; AID 624288; active = falling curve of any shape with a large fitted effect; inconclusive = falling curve, mostly with a smaller effect; inactive = flat or rising curve; cell line not stated here;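 note: intracellular cAMP measured with PDE inhibitor Ro 20-1724 present during compound exposure; potency is the fitted concentration of half-maximal effect; % is set by controls: 0 for no effect and ±100 for the full control effect; nearly all actives have a fitted effect of over 65% in size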
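G418-selected cells were plated in DMEM/10% FBS for 16-24 h at 37C, then treated with compounds plus the PDE inhibitor […] (300 uM solution added) for 30 min at 37C. Intracellular cAMP was measured by HTRF after 30 min lysis at room temperature.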
D2 potentiator = potentiates the human D2 dopamine receptor allosterically | P14416 | DiscoveRx D2 beta-arrestin cells, luminescence, 90 min; 100% = 57 uM dopamine signal | potentiation, % (test concentration not listed) | 360,000 compounds, 0.23% hits | AID 624464; active = potentiation of 50% or more; inconclusive = 30% to 50%; inactive = 30% or less;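 note: compound concentration not given in the record; tested on top of an EC20 dose of dopamine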
Target sequence (P14416 whole entry, looked up): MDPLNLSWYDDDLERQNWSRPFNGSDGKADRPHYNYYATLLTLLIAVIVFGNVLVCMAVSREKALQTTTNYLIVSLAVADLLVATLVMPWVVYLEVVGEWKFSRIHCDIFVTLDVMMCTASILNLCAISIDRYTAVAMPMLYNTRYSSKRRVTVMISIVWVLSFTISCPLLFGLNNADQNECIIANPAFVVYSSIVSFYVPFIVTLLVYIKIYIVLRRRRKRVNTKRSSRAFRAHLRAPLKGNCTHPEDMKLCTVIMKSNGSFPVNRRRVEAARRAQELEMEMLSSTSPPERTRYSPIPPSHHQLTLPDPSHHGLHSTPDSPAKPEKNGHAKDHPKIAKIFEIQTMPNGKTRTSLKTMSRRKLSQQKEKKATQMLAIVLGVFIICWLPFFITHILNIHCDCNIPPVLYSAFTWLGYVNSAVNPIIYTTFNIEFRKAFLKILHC
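PathHunter beta-arrestin assay in DiscoveRx D2 cells. Compounds were added with an EC20 of dopamine (50 nM final) for 90 min at 37 deg C. Luminescence was read 1 h after detection reagent, with 57 uM dopamine as the EC100 control.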
Starred values were filed as active, the others as inactive; ? = inconclusive; / = no result given; [ ] = dose if it differs, or a comment.

SMILES	ClpP mod	Sfp PPTase inh	gsp agonist	Menin-MLL FL inh	TRPV1 potentiator	gsp antag	D2 potentiator
Cc1cc(C)c2nc(N)sc2c1	-4.2%	5%	15%	1.6	9	6%	-1
NC(=O)c1ccc(=O)n(Cc2ccc(F)c(F)c2)c1	0.5%	-26%	36%	-3.8	?	15%	1
O=C(COc1ccc(Cl)cc1)NCc1ccncc1	-1.4%	18%	-6%[15.4 µM]	-7.8	-10	-8%	-4
Cc1cc(N2CCC(C)CC2)nc(-c2ccccc2O)n1	?	-9%	-24%	0.4	-4	-13%	-4
COc1ccc(NCc2nnc(SCC(=O)NCc3ccccc3)n2-c2ccccc2OC)cc1	6.4%	7%	10%	-0.3	-7	-10%	-8
CCCCN(C(=O)CSCC(=O)Nc1ccc(C)cc1)c1c(N)n(CCCC)c(=O)[nH]c1=O	-2.0%	/	-10%[15.4 µM]	/	-4	2%	-21
COc1cccc(-c2nc3ccc(C(=O)NC(C)Cc4cccnc4)cc3o2)c1 (stereo unspecified)	3.6%	17%	-19%	-3.0	18	-13%	0
CSc1ccccc1OCc1cc(C(=O)NC(C)Cn2cncn2)no1 (stereo unspecified)	3.5%	2%	-15%	-0.5	3	14%	-9
COc1ccc(C(CNC(=O)c2cccc(S(=O)(=O)NCc3ccccc3)c2)N(C)C)cc1 (stereo unspecified)	-2.0%	0%	2%	/	0	4%	-56
CCN(C[C@H]1N[C@@](C)(C(=O)OC)[C@H]2C(=O)N(C)C(=O)[C@@H]12)C(C)=O	1.1%	/	/	/	/	5%	-4
COc1ccc(OC)c(CCNC(=O)Cn2nc(C)c3c(C)n(-c4ccc(C)cc4)nc3c2=O)c1	/	-23%	36%	-1.3	2	?	-4
CC(C)c1onc(C(=O)N2CCN(Cc3ccccc3)CC2)c1[N+](=O)[O-]	0.0%	-5%	-13%	-2.5	1	4%	-3
C[C@@]12C(=O)N(CCO)CC(=O)N1[C@H](/C=C/c1ccccc1)[C@@H]1C(=O)N(c3ccccc3)C(=O)[C@@H]12	0.1%	10%	-27%	3.8	-8	16%	-13
COc1cc2c(C#CCCCO)c(-c3ccc(C#N)cc3)oc(=O)c2cc1OC	14µM*	/	/	/	-5	-9%	-9
COC(=O)c1ccc(NC(=O)CSCc2ccc(C)cc2)cc1	-1.0%	19%	?	-1.0	3	-11%	-1

Quoted from the listing.
COc1ccc(NCc2nnc(SCC(=O)NCc3ccccc3)n2-c2ccccc2OC)cc1 @ gsp antag: -10%
NC(=O)c1ccc(=O)n(Cc2ccc(F)c(F)c2)c1 @ D2 potentiator: 1
O=C(COc1ccc(Cl)cc1)NCc1ccncc1 @ gsp antag: -8%
COC(=O)c1ccc(NC(=O)CSCc2ccc(C)cc2)cc1 @ Menin-MLL FL inh: -1.0
CSc1ccccc1OCc1cc(C(=O)NC(C)Cn2cncn2)no1 (stereo unspecified) @ gsp antag: 14%
C[C@@]12C(=O)N(CCO)CC(=O)N1[C@H](/C=C/c1ccccc1)[C@@H]1C(=O)N(c3ccccc3)C(=O)[C@@H]12 @ gsp agonist: -27%
Cc1cc(C)c2nc(N)sc2c1 @ TRPV1 potentiator: 9

More structures
SMILES	ClpP mod	Sfp PPTase inh	gsp agonist	Menin-MLL FL inh	TRPV1 potentiator	gsp antag	D2 potentiator
N#C/C(=C\c1ccccc1[N+](=O)[O-])C(=O)NC1CCCCC1	/	89µM*	43%	?	-21	-15%	-9
COc1cc2c(cc1OC)CN(C(=O)CCOc1ccccc1C)CC2	-1.5%	1%	-3%[15.4 µM]	2.2	-9	11%	1
COc1ccc(CCN(C)CC(=O)Nc2ccc(F)c(Cl)c2)cc1OC	/	16%	-51%[inhibitor]	-2.2	-15	-13%	-10
CCn1cc(CN2CCC(C(=O)Nc3ccc(Oc4ccccc4F)cc3)CC2)cn1	-1.2%	/	-3%	/	/	/	-20
Cc1cc(C(=O)O)c(CSCc2cc(C(=O)O)oc2C)o1	-1.5%	?	-24%	0.9	1	11%	-5
Cc1ccc2nc(SC(C)C(=O)NCc3ccc4c(c3)OCO4)[nH]c2c1 (stereo unspecified)	/	18%	3%[15.4 µM]	-0.6	-10	?	-14
COc1ccc(-c2cc(C(=O)N/N=C/c3cccnc3)c3ccccc3n2)c(OC)c1	-3.4%	/	-1%[15.4 µM]	/	/	-1%	-14
Cn1cc(/C=C2/SC(=O)N(c3ccccc3)C2=O)c2ccccc21	-1.2%	1%	-23%	3.0	2	-3%	0
Cc1cccc(NC(=O)C2SC(=Nc3c(C)cccc3C)C(C(=O)N3CCOCC3)=C2N)c1 (stereo unspecified)	0.7%	-13%	-4%[15.4 µM]	-3.7	5	1%	-15
CC(=O)Oc1cccc(C(=O)Nc2ccccc2C(=O)N2CCCC2)c1	-1.4%	7%	-9%	3.4	?	-8%	0
CC(C)Cn1nc(NS(=O)(=O)c2ccccc2)c2cc3ccccc3nc21	-5.4%	-1%	16%	6.1	6	-8%	-13
O=C(Nc1cccc(C(=O)O)c1)/C(=C\c1ccc2c(c1)OCO2)NC(=O)c1ccc(Br)cc1	/	-22%	21%	-1.3	-7	1%	-15
CCCNS(=O)(=O)c1ccc(OCC(=O)NCCCOC)cc1	1.0%	12%	-14%	0.7	-1	9%	-3
Cc1ccc(SCC(=O)NC(=O)NC(C)C)c(C)c1	/	4%	1%[15.4 µM]	2.7	-6	8%	6
O=C(NCCc1ccccc1)C1CCC(CNS(=O)(=O)c2cccc3cccnc23)CC1 (stereo unspecified)	/	7%	2%[15.4 µM]	0.1	-10	-23%	-4

Record cards (already shown). Order of screens: ClpP mod	Sfp PPTase inh	gsp agonist	Menin-MLL FL inh	TRPV1 potentiator	gsp antag	D2 potentiator
COc1ccc(-c2cc(C(=O)N/N=C/c3cccnc3)c3ccccc3n2)c(OC)c1 is entered as -3.4%	/	-1%[15.4 µM]	/	/	-1%	-14
Cc1cccc(NC(=O)C2SC(=Nc3c(C)cccc3C)C(C(=O)N3CCOCC3)=C2N)c1 (stereo unspecified) is entered as 0.7%	-13%	-4%[15.4 µM]	-3.7	5	1%	-15

Next entries:
SMILES	ClpP mod	Sfp PPTase inh	gsp agonist	Menin-MLL FL inh	TRPV1 potentiator	gsp antag	D2 potentiator
COCCc1ncc(CN2CCCCC2C(=O)Nc2ccc(Oc3ccccc3)nc2)cn1 (stereo unspecified)	-1.8%	16%	17%	/	0	-4%	-9
O=C(Nc1cccc2c1[nH]c1ccccc12)C(F)(F)F	5.6%	-7%	-4%	1.8	?	-21%	-7
COc1cc2ccccc2cc1C(=O)Nc1cccnc1	-16%	11%	3%	1.8	-2	11%	-6
CCOC(=O)C1CCCN(Cc2c(C(=O)N3CCCCC3)nc3c(C)cccn23)C1 (stereo unspecified)	/	6%	-8%	-3.3	-4	-15%	-6
CCNc1nnc(SCC(=O)c2c(N)n(C3CC3)c(=O)[nH]c2=O)s1	-0.4%	/	3%	/	-4	10%	-6
CCC(=O)N1CCN(c2ccc(NC(=O)c3ccc4c(c3)OCO4)cc2)CC1	-2.2%	-14%	-73%[inhibitor]	-24	/	-7%	-2
CC(C)=N/N=C1/NC(=O)C(c2ccccc2)S1 (stereo unspecified)	-1.8%	/	-5%	/	/	5%	-14
Cc1c(Cl)cccc1NC(=O)NCc1ccc(C)n1C	-10.0%	-1%	-22%	-2.4	-3	11%	-4
O=S(=O)(c1ccc2c(c1)nc(COc1ccc(Cl)cc1)n2CC1CCCO1)N1CCOCC1 (stereo unspecified)	-2.8%	?	-2%	5.2	-3	-1%	-6
CC(=O)Nc1ccc(S(=O)(=O)N[C@@H](C)C(=O)OCC(=O)c2ccc[nH]2)cc1	-0.8%	/	-3%[15.4 µM]	/	/	9%	11
C[C@H](NC(=O)C1CC(=O)N(c2ccc3c(c2)OCO3)C1)C(=O)NCc1ccco1 (stereo partly specified)	-2.9%	5%	-15%	/	-10	13%	-5
COc1cccc(N2CCN(C(=O)c3oc4ccccc4c3NC(=O)CCc3cc(OC)no3)CC2)c1	-3.8%	-3%	-64%[inhibitor]	/	5	?	5
CC(Sc1ccccc1F)C(=O)Nc1ccc2c(c1)OCCO2 (stereo unspecified)	1.6%	/	-46%[inhibitor]	/	/	10%	-16
Cc1[nH]c(=S)n(CC2CCCO2)c1C (stereo unspecified)	-1.4%	-28%	1%	-1.1	6	3%	-4
COC(=O)c1c(C)oc(C)c1S(=O)(=O)NCc1ccc(Cl)cc1Cl	-14%	-5%	0%[15.4 µM]	-0.8	-28	-10%	-5
Cc1cc(C)n(CCCNC(=O)C2CCC(=O)N(CCc3ccc(Cl)cc3)C2)n1 (stereo unspecified)	-0.1%	4%	1%	/	-7	6%	-8
CCOC(=O)CN1C(=O)CCSc2ccc(Cl)cc21	/	18%	40%	-3.7	-3	7%	-1
COc1ccc(CCNC(=O)c2ccc(OCc3c(C)noc3C)cc2)cc1OC	0.5%	/	28%	/	-4	-9%	6
COc1ccccc1NC(=O)Cn1nc(Cc2cccnc2)c2ccccc2c1=O	/	10%	16%[15.4 µM]	1.0	3	8%	1
OC(c1ccccc1)(c1ccccc1)c1ccn[nH]1	-1.1%	/	-25%	/	22	10%	-9
O=S(=O)(NCc1ccccn1)c1ccc(Cl)c(C(F)(F)F)c1	-3.0%	18%	0%	-0.6	-19	-7%	-9
CC(=O)Nc1ccc(NC(=O)C(C)O/N=C/c2cccc([N+](=O)[O-])c2)cc1 (stereo unspecified)	-0.5%	5%	7%	-0.5	1	4%	14
Cc1noc(C)c1C(=O)Nc1ccc(F)cc1	/	11%	9%[15.4 µM]	6.8	0	5%	0
COc1ccc(Cn2nnnc2C(c2cccnc2)N2CCN(c3ccc(O)cc3)CC2)cc1 (stereo unspecified)	-0.9%	?	-51%[inhibitor]	0.8	-10	-24%	?
COc1ccc(NS(=O)(=O)c2csc(C(N)=O)c2)cc1	/	12%	-32%[inhibitor]	3.8	4	-5%	0
Cc1ccc(C(=O)c2no[n+]([O-])c2C(=O)c2ccc(C)cc2)cc1	/	?	17%	-1.3	9	-5%	-10
